Source: PubChem (The Scripps Research Institute Molecular Screening Center)
OX1R antag-1: antagonists of human orexin 1 receptor (OX1R) | Orexin/Hypocretin receptor type 1 (Homo sapiens), O43613 | OX1R-expressing cells, FRET antagonist read-out | inhibition, % at 6.6 µM | 330,000 tested, 1.8% active | AID 485270, 2010; in the data active = inhibition mostly above about 38%, no sharp cut-off; inactive = mostly below about 40%;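 also: 0% = agonist challenge alone and 100% = reference antagonist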
Target sequence (O43613 whole entry, looked up): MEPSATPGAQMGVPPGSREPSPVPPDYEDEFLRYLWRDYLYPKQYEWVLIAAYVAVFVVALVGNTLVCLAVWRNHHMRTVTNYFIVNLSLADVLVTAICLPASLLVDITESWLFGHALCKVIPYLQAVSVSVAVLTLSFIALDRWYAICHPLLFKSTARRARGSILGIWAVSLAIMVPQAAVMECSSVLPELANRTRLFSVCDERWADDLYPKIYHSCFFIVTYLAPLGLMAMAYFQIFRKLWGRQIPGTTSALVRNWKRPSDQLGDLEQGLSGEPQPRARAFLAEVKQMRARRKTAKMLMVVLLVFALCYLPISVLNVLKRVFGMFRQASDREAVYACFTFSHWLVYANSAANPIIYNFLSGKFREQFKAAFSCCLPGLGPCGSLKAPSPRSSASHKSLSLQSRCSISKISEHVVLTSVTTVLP
OX1R antag-2: OX1R (HCRTR1) antagonists, primary screen, fluorescence, CHO/OX1R cells, Fluo-8 calcium, orexin A; inhibition, % at 5 µM; Orexin/Hypocretin receptor type 1 (Homo sapiens), O43613; Fluo-8 calcium fluorescence; 330,000 tested, 0.43% active; AID 434989, 2010;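 active = inhibition above its plate's threshold, mean inhibition of all tested compounds on the plate plus 3 SD, cut at about 37% in these data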;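 also: 0% = orexin A challenge wells and 100% = SB-334867-A antagonist wells; not every result past the cut was called active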
* = called active by the depositor. The list is partial; most or all hits stand in other tables.

Screening CC(C)(C)C1CC=C2C(C#N)=C(N)C(C#N)(C#N)C(c3cccs3)C2C1 (stereo not given) returned OX1R antag-1 10 and OX1R antag-2 -33.
`O=C(NCC(=O)N1CCC(Cc2ccccc2)CC1)c1ccc(Cl)cc1` gave OX1R antag-1 11 and OX1R antag-2 -26.
`Cc1cc(C)c2cc(C(=O)Nc3ccc4c(c3)OCO4)[nH]c2c1` gave OX1R antag-1 37 and OX1R antag-2 -10.
For CC(C)CNC(=O)CC(=O)NN=C1CCCC1 the results were OX1R antag-1 6 and OX1R antag-2 -9.
For CN(c1ccc(C(=O)Nc2cccnc2)cc1)S(C)(=O)=O the results were OX1R antag-1 24 and OX1R antag-2 -17.
For Cc1cccnc1NC(=S)NC(=O)/C=C/c1ccccc1 the results were OX1R antag-1 31 and OX1R antag-2 -27.
Screening Cn1cc(CNC(=O)/C=C/c2ccc(Cl)cc2)cn1 returned OX1R antag-1 9 and OX1R antag-2 -10.
Cc1ccc(-n2nc(C)c3c(-c4cccs4)c(C#N)c(N)nc32)cc1 was read as OX1R antag-1 21 and OX1R antag-2 -32.
C/C(=N\NC(=O)c1cc(C)oc1C)c1ccc2c(c1)OCO2 was read as OX1R antag-1 27 and OX1R antag-2 -4.
Screening COc1ccc(N(C(=O)c2ccc(F)cc2)C2=CC3CCC(C2)N3C)cc1 (stereo not given) returned OX1R antag-1 12 and OX1R antag-2 -12.
Screening COCc1cc(C)n(CC(=O)N/N=C/c2ccc(-c3ccc(Cl)c(C(=O)O)c3)o2)c(=O)c1C#N returned OX1R antag-1 37 and OX1R antag-2 -8.
Screening O=C(Nc1ccc(F)cc1F)N1CCCCCC1 returned OX1R antag-1 15 and OX1R antag-2 -9.
For CCc1nnc(NC(=O)C2CC(=O)N(CCc3ccc(F)cc3)C2)s1 (stereo not given) the results were OX1R antag-1 17 and OX1R antag-2 -23.
Screening Cc1ccc(N2C(=O)C(F)(F)C2c2ccccc2)cc1 (stereo not given) returned OX1R antag-1 8 and OX1R antag-2 -16.
For O=C(CSc1nc2ccccc2c(=O)[nH]1)c1ccc(O)c(O)c1 the results were OX1R antag-1 22 and OX1R antag-2 22.
Screening CCc1nn2c(=O)cc(COc3cccc(NC(=O)c4ccco4)c3)nc2s1 returned OX1R antag-1 4 and OX1R antag-2 -17.
Screening O=C1NC(c2cccc([N+](=O)[O-])c2)=CCN1c1ccccc1O returned OX1R antag-1 43 and OX1R antag-2 -11.
Screening CN1CCN(C(=O)c2ccc(N3CCCC3=O)cc2)CC1 returned OX1R antag-1 5 and OX1R antag-2 10.
Screening Cn1c(=O)c2c(ncn2CC(=O)N2CCN(c3cccc(Cl)c3)CC2)n(C)c1=O returned OX1R antag-1 9 and OX1R antag-2 -28.
Screening CCOc1cc(/C=C/C(=O)OCC(=O)NCc2ccco2)cc(Cl)c1OC returned OX1R antag-1 6 and OX1R antag-2 -26.
O=C(/C=C/c1ccc(Br)cc1)NC(=O)c1ccccc1O was read as OX1R antag-1 58 and OX1R antag-2 8.
For O=C(O)c1ccc2c(c1)C(=O)/C(=C\c1ccco1)C2=O the results were OX1R antag-1 34 and OX1R antag-2 -8.
Screening O=C1CCN(Cc2ccccc2)CCN1CCO returned OX1R antag-1 9 and OX1R antag-2 -14.
Screening Cc1ccccc1NC(=O)C(=O)Nc1ccccc1C returned OX1R antag-1 8 and OX1R antag-2 4.
For CCOC(=O)C1CCCN(C(=O)c2cc3c(OC)c(OC)c(OC)cc3[nH]2)C1 (stereo not given) the results were OX1R antag-1 -3 and OX1R antag-2 -28.
`Cc1cc(C)n(/N=C/c2cccc(O)c2)c(=O)c1C(N)=O` gave OX1R antag-1 18 and OX1R antag-2 -13.
Screening C[C@@H]1CCC[C@]2(O[C@@H](CCO)C[C@@H](O)[C@@H]2O)O1 returned OX1R antag-1 14 and OX1R antag-2 10.
Screening CCOC(=O)CSc1nnc(C2CCCCC2)n1C returned OX1R antag-1 8 and OX1R antag-2 -17.
For O=C(NCCN1CCN(c2cccc(Cl)c2)CC1)c1ccc(CSc2nc3ccncc3[nH]2)cc1 the results were OX1R antag-1 30 and OX1R antag-2 -28.
For CC(=O)N1c2ccc(S(=O)(=O)N(C)CC(=O)N3CCCC3)cc2CC1C (stereo not given) the results were OX1R antag-1 14 and OX1R antag-2 -1.
`CCOC(=O)Nc1ccc2c(c1)N(C(=O)N1CCN(C)CC1)c1ccccc1S2` gave OX1R antag-1 24 and OX1R antag-2 -26.
Screening COc1ccc(-n2c(SCC(=O)N3CCCCC3)nnc2-c2cccnc2)cc1 returned OX1R antag-1 10 and OX1R antag-2 -26.
`Cc1cccc(-c2c3c(=O)n(C)c(=O)n(C)c3cn2CCO)c1` gave OX1R antag-1 10 and OX1R antag-2 -2.
`Cc1ccc(C)c(-n2c(Cc3cc(=O)[nH]c(=O)[nH]3)nnc2SCC(=O)NCc2ccco2)c1` gave OX1R antag-1 17 and OX1R antag-2 3.
N/C(=N\OC(=O)c1ccc(Br)cc1)c1ccccc1 was read as OX1R antag-1 6 and OX1R antag-2 3.
For COc1ccc(S(=O)(=O)N(C)C(C)CCc2ccco2)cc1 (stereo not given) the results were OX1R antag-1 11 and OX1R antag-2 10.
For OCCC1CN(Cc2cccc(OC3CCCC3)c2)CCN1Cc1ccsc1 (stereo not given) the results were OX1R antag-1 14 and OX1R antag-2 -31.
Screening COc1ccc(CNC(=O)CCCN2C(=O)c3ccccc3C2=O)cc1 returned OX1R antag-1 13 and OX1R antag-2 -15.
Screening C=CCSc1nc(N)c(C(=O)Nc2ccccc2)cc1C#N returned OX1R antag-1 4 and OX1R antag-2 4.
Cc1noc(C)c1C(=O)NC1=NCCS1 was read as OX1R antag-1 28 and OX1R antag-2 -9.
For N/C(=N\OC(=O)CCCOc1ccccc1)c1ccccc1 the results were OX1R antag-1 22 and OX1R antag-2 -19.
Screening COc1cccc(C(=O)N2CCSC2=S)c1 returned OX1R antag-1 16 and OX1R antag-2 -13.
CCCCn1c(CN(Cc2ccccc2)Cc2ccccc2)nc2c1c(=O)n(C)c(=O)n2C was read as OX1R antag-1 19 and OX1R antag-2 -13.
Cn1cnc([N+](=O)[O-])c1Cl was read as OX1R antag-1 6 and OX1R antag-2 -9.
COc1cc(NS(=O)(=O)c2ccc(NC(C)=O)cc2)ncn1 was read as OX1R antag-1 21 and OX1R antag-2 -10.
O=C(O)c1cccn2c(=O)c3ccccc3nc12 was read as OX1R antag-1 41 and OX1R antag-2 2.
`Cc1ccccc1-c1nnc(SCC(=O)Nc2ccc(Cl)cc2)n1N` gave OX1R antag-1 21 and OX1R antag-2 -19.
COc1cc(SC)ccc1C(=O)N1CCN(Cc2ccccc2)CC1 was read as OX1R antag-1 14 and OX1R antag-2 -17.
Screening COc1cccc(CNC(=O)C2CCCN(S(=O)(=O)c3c(C)noc3/C=C/N(C)C)C2)c1 (stereo not given) returned OX1R antag-1 5 and OX1R antag-2 1.
CCOc1ccc(NC(=O)C(C)Sc2nnnn2C)cc1 (stereo not given) was read as OX1R antag-1 19 and OX1R antag-2 -24.
Screening Cc1ccc(NC(C)C(=O)N/N=C/c2ccc([N+](=O)[O-])s2)cc1 (stereo not given) returned OX1R antag-1 25 and OX1R antag-2 -22.
COc1ccc(Nc2ncc(C#N)c(N)n2)c(OC)c1 was read as OX1R antag-1 9 and OX1R antag-2 1.
Screening Cc1c(Cl)cccc1NC(=S)N(Cc1ccco1)C(C)c1ccccn1 (stereo not given) returned OX1R antag-1 8 and OX1R antag-2 -5.
Screening COc1cccc(Cn2c(=O)oc3ccccc32)c1 returned OX1R antag-1 9 and OX1R antag-2 -6.
Screening O=C(c1cccc(N2C(=O)C3CC=CCC3C2=O)c1)N1CCCCCC1 (stereo not given) returned OX1R antag-1 14 and OX1R antag-2 -9.
For CC(=O)Cc1nsc(NC(=O)c2ccc(COc3ccccc3Cl)o2)n1 the results were OX1R antag-1 19 and OX1R antag-2 9.
For COc1ccc2nc(NC(=O)c3ccccc3F)sc2c1 the results were OX1R antag-1 24 and OX1R antag-2 -19.
`CC(=O)Nc1nonc1-c1nc2ccccc2n1C` gave OX1R antag-1 2 and OX1R antag-2 -11.
Screening CCN1C(=O)c2ccccc2S(=O)c2ccc(C(=O)NC3CC3)cc21 (stereo not given) returned OX1R antag-1 4 and OX1R antag-2 -17.
CNc1ccc(/C=C2\CSc3ccccc3C2=O)cc1[N+](=O)[O-] was read as OX1R antag-1 8 and OX1R antag-2 -21.
Screening O=C(O)Cc1ccc(C(=O)c2cccs2)s1 returned OX1R antag-1 7 and OX1R antag-2 -17.
`CCOC(=O)Cn1c(CN2CCN(c3cccc(Cl)c3)CC2)nc2c1c(=O)[nH]c(=O)n2C` gave OX1R antag-1 4 and OX1R antag-2 -53.
For Cc1onc(-c2ccccc2Cl)c1C(=O)Nc1ccc(CN2CCCC2)cc1 the results were OX1R antag-1 13 and OX1R antag-2 -26.
COc1ccc(Nc2nc(N)c(C(=O)c3ccc(OC)cc3)s2)cc1 was read as OX1R antag-1 36 and OX1R antag-2 -28.
For COc1ccc(S(=O)(=O)N2CCC(C(=O)N3CCOCC3)CC2)cc1OC the results were OX1R antag-1 -5 and OX1R antag-2 -4.
CC1NC(=S)N(C2CCCCC2)C1=O (stereo not given) was read as OX1R antag-1 2 and OX1R antag-2 -16.
For Cc1cc(NC(=O)CSc2nnc(-c3ccoc3C)o2)no1 the results were OX1R antag-1 -1 and OX1R antag-2 6.
CCOc1cc(/C=C2\C(=N)N3N=C(C)SC3=NC2=O)ccc1OCCOc1ccccc1 was read as OX1R antag-1 -7 and OX1R antag-2 -1.
Screening CC1=C(N2CCCCC2)CCC1=O returned OX1R antag-1 31 and OX1R antag-2 -5.
Screening Cc1ccnc(-n2c(C)cc(/C=N/NC(=O)COc3cccc4cccnc34)c2C)c1 returned OX1R antag-1 14 and OX1R antag-2 -35.
`CCC1(CC)Cc2ccccc2C(CC(=O)N2CCOCC2)=N1` gave OX1R antag-1 8 and OX1R antag-2 -1.
`CCOc1ccc(CNC(=O)Cn2nc(C)n3nc(-c4ccccc4)cc3c2=O)cc1` gave OX1R antag-1 1 and OX1R antag-2 -16.
COc1ccc2nc(C)cc(C(=O)O)c2c1 was read as OX1R antag-1 8 and OX1R antag-2 -10.
`CC(=O)Nc1cccc(/C(C)=N/NC(=O)c2cc(-c3ccncc3)nc3ccccc23)c1` gave OX1R antag-1 7 and OX1R antag-2 -29.
CSc1ccc(C2C(C(=O)c3ccco3)=C(O)C(=O)N2c2nnc(SC)s2)cc1 (stereo not given) was read as OX1R antag-1 2 and OX1R antag-2 6.
For O=C(O)CCCNS(=O)(=O)c1cccs1 the results were OX1R antag-1 6 and OX1R antag-2 -3.
Screening CCOC(=O)N1CCN(S(=O)(=O)c2ccc(C(=O)Nc3sc4c(c3C#N)CCC4)cc2)CC1 returned OX1R antag-1 13 and OX1R antag-2 0.
For CCc1nnc(NC(=O)CCC(=O)N2CCN(Cc3ccc(OC)c(F)c3)CC2)s1 the results were OX1R antag-1 0 and OX1R antag-2 -15.
COc1ccc(C(=O)N(C)C2(C)CCS(=O)(=O)C2)cc1OC (stereo not given) was read as OX1R antag-1 17 and OX1R antag-2 -9.
COc1ccc2cc(C(=O)C3CCCN(C(=O)c4cc(=O)n(C)c(=O)n4C)C3)ccc2c1 (stereo not given) was read as OX1R antag-1 22 and OX1R antag-2 -28.
`Cc1cc(C(=O)CSc2nnc(-c3ccc(OC(F)F)cc3)o2)c(C)n1Cc1cccs1` gave OX1R antag-1 13 and OX1R antag-2 -14.
COc1ccccc1CCC(=O)OCC(=O)Nc1c(Br)cc(C)cc1Br was read as OX1R antag-1 9 and OX1R antag-2 -38.
For COc1ccc([N+](=O)[O-])cc1NC(=O)CC1SC(=Nc2cccc(C)c2C)N(/N=C/c2cccc(OC)c2OC)C1=O (stereo not given) the results were OX1R antag-1 22 and OX1R antag-2 -1.
Screening CC(C)N(C(=S)Nc1cccnc1)c1ccccc1 returned OX1R antag-1 9 and OX1R antag-2 11.
Screening O=C(C1=C(O)C(=O)N(Cc2ccco2)C1c1cccc(Cl)c1)c1ccco1 (stereo not given) returned OX1R antag-1 24 and OX1R antag-2 -17.

By substructure, the entries above containing a furan ring, fused or not (twelve)
C/C(=N\NC(=O)c1cc(C)oc1C)c1ccc2c(c1)OCO2 was read as OX1R antag-1 27 and OX1R antag-2 -4.
Screening COCc1cc(C)n(CC(=O)N/N=C/c2ccc(-c3ccc(Cl)c(C(=O)O)c3)o2)c(=O)c1C#N returned OX1R antag-1 37 and OX1R antag-2 -8.
Screening CCc1nn2c(=O)cc(COc3cccc(NC(=O)c4ccco4)c3)nc2s1 returned OX1R antag-1 4 and OX1R antag-2 -17.
Screening CCOc1cc(/C=C/C(=O)OCC(=O)NCc2ccco2)cc(Cl)c1OC returned OX1R antag-1 6 and OX1R antag-2 -26.
For O=C(O)c1ccc2c(c1)C(=O)/C(=C\c1ccco1)C2=O the results were OX1R antag-1 34 and OX1R antag-2 -8.
`Cc1ccc(C)c(-n2c(Cc3cc(=O)[nH]c(=O)[nH]3)nnc2SCC(=O)NCc2ccco2)c1` gave OX1R antag-1 17 and OX1R antag-2 3.
For COc1ccc(S(=O)(=O)N(C)C(C)CCc2ccco2)cc1 (stereo not given) the results were OX1R antag-1 11 and OX1R antag-2 10.
Screening Cc1c(Cl)cccc1NC(=S)N(Cc1ccco1)C(C)c1ccccn1 (stereo not given) returned OX1R antag-1 8 and OX1R antag-2 -5.
For CC(=O)Cc1nsc(NC(=O)c2ccc(COc3ccccc3Cl)o2)n1 the results were OX1R antag-1 19 and OX1R antag-2 9.
For Cc1cc(NC(=O)CSc2nnc(-c3ccoc3C)o2)no1 the results were OX1R antag-1 -1 and OX1R antag-2 6.
CSc1ccc(C2C(C(=O)c3ccco3)=C(O)C(=O)N2c2nnc(SC)s2)cc1 (stereo not given) was read as OX1R antag-1 2 and OX1R antag-2 6.
Screening O=C(C1=C(O)C(=O)N(Cc2ccco2)C1c1cccc(Cl)c1)c1ccco1 (stereo not given) returned OX1R antag-1 24 and OX1R antag-2 -17.
